HSD17B inhib: HSD17B dehydrogenase inhibition | Q99714 | recombinant HSD17B10, NADH fluorescence kinetic; many of its hits are not listed in these tables | Potency, µM (top dose mostly 57.1 µM), without a hit: at the top dose activity change, negative = inhibition, most hits filed as inhibitors | 75,000 tested, 7.6% active | AID 893; active means well fitted inhibition curve with a large enough effect; inconclusive means small, poorly fitted or top-dose-only effect; inactive means no such curve, though single readings can be large or run the other way;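 further: the protocol describes HADH2 (HSD17B10) and not the HSD17B4 of the title; nearly all actives have a fitted effect of over 70% in size; most hits overshoot -100% by far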
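Activity followed as NADH fluorescence increase (ex 360, em 450 nm) every 30 seconds for 4 min, using final 90 uM beta-hydroxybutyryl CoA and 1 mM NAD+. Recombinant His-tagged enzyme, 20 nM, pH 9.0 Tris buffer, 15 min compound preincubation.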
* hit, by the source's call; ? = inconclusive; [ ] = another dose, or the depositor's remark. On the % scale 0 is the no-effect control and ±100 the full control effect; potency means the concentration at half of the fitted maximal effect.

SMILES | HSD17B inhib
Cc1cccc(Cc2nnc(NC(=O)c3cccc(S(=O)(=O)N4CCOCC4)c3)s2)c1 | -16.1%
CCOC(=O)OCC1OC(C#CC(C)(C)C)C=CC1OC(=O)OCC (stereo not drawn) | 4.5%[11.4 µM]
Cc1cccc(N2CCN(S(C)(=O)=O)CC2)c1C | 1.1%
COC(=O)c1ccc(C)c(NC(=O)CN(c2cc(OC)ccc2OC)S(C)(=O)=O)c1 | -3.3%
COc1ccc(C)cc1NC(=O)CSc1nnc(-c2ccc(Br)cc2)o1 | -5.0%
COc1ccc(-c2oc(/N=C/N3CCOCC3)c(C#N)c2-c2ccc(OC)cc2)cc1 | -9.6%
Oc1ccc(-c2nc3ccccn3c2NCc2ccc3c(c2)OCO3)cc1 | 31.6µM*
Nc1cc(C(=O)O)ccc1Nc1ccccc1 | 31.6µM*
CN(c1ccccc1)C(c1ccc(F)cc1)c1nnnn1C1CCCC1 (stereo not drawn) | 1.3%
COC(=O)c1ccc(C(NC(=O)OCc2ccccc2)/C(F)=C/[C@@H](C)C(=O)NC2CCCCC2)cc1 (stereo partly drawn) | -3.1%
CN(C)S(=O)(=O)c1ccc(NC(=O)C2COc3ccccc3O2)cc1 (stereo not drawn) | 1.0%
CCn1c(CNC(=O)c2ccccc2)nc2ccccc21 | -1.4%
CCOc1cccc(NC(=O)CSc2nncn2N)c1 | 8.1%
CC1CC(C)CN(C(=O)COC(=O)c2cc3ccccc3cc2O)C1 (stereo not drawn) | -6.0%
CCOc1ccc(-c2nnn(CC(=O)NCc3ccc(F)cc3)n2)cc1OCC | -25.1%
CC1Oc2ccccc2N(Cc2ccccc2Cl)C1=O (stereo not drawn) | 0.4%
CC1CC(C)CN(C(=O)Cn2c(=O)n(CCCCC(=O)NCc3ccco3)c(=O)c3ccccc32)C1 (stereo not drawn) | 3.3%
CCOC(=O)Cc1c(C)nc2c(C#N)c(C)nn2c1C | 25.1µM*
CCOc1cc(NC(=O)C2CCCO2)c(OCC)cc1NC(C)=O (stereo not drawn) | -2.5%
COc1ccc(Cc2nc(-c3ccccc3)no2)cc1 | 16.1%
O=C1C2C3C=CC(C3)C2C(=O)N1CNc1ccccc1 (stereo not drawn) | 13.8%
c1coc(CN2CN=C(Nc3nc4ccccc4s3)NC2)c1 | -2.2%
COc1cccc(NC(=O)c2ccccc2NS(C)(=O)=O)c1 | -5.9%
O=C(CCn1nc(-c2ccccc2)c2ccccc2c1=O)N1CCN(c2ccccc2)CC1 | -0.9%
CC1(C)CC(=O)C2=C(C1)NCN(Cc1ccccc1)C2 | 5.2%
Cn1c(N)c(C(=O)COC(=O)c2cc(-c3ccccc3)nc3ccccc23)c(=O)n(Cc2ccccc2)c1=O | ?
CCCCN(C(=O)Cn1nnc2ccccc21)C(C(=O)NCCOC)c1ccc(OC)cc1 (stereo not drawn) | 6.1%
CC(C)(O)C#Cc1ccc(C(=O)N2CCCC2C(=O)O)s1 (stereo not drawn) | 5.0%
O=C(Nc1ccccc1)N1CCCCC1c1cccnc1 (stereo not drawn) | -0.1%
COc1ccc(-c2cc(=O)c3c(OC(C)=O)cc(OC(C)=O)cc3o2)cc1 | 20µM*
O=C(CSc1ccc2c(c1)OCCO2)NCCN1C(=O)CSC1=O | -8.2%
Cc1cccc(NC(=O)C2CCCN(C(=O)NC3CCCCC3)C2)c1C (stereo not drawn) | -11.8%
CC(=O)OCC1OC(Oc2cc(OC(C)=O)c3c(=O)cc(-c4ccc(OC(C)=O)cc4)oc3c2)[C@@H](OC(C)=O)C(OC(C)=O)C1OC(C)=O (stereo partly drawn) | -7.6%
COCCn1c(SCc2ccc(C(=O)OC)o2)nc2cc(Cl)ccc2c1=O | -3.3%
CC12C(=O)N(Cc3ccccc3)C(=O)C1C1C=CC2C1 (stereo not drawn) | 5.3%
O=C1C2C3C=CC(C3)C2C(=O)N1CCCO (stereo not drawn) | 4.1%
COC(=O)COc1cccc(NC(=O)c2ccccc2)c1 | -8.1%
CCOC(=O)c1c(C)c(C(=O)NCC2CCCO2)c(C)n1C (stereo not drawn) | 4.7%
CCOC(=O)c1ccc(N2C(=O)CC(N3CC(C)OC(C)C3)C2=O)cc1 (stereo not drawn) | -27.9%
Cc1nc2ccc(Cl)cc2[nH]1 | 4.6%
Cc1cc(C)nc(SC(C)C(=O)Nc2ccc(S(N)(=O)=O)cc2)n1 (stereo not drawn) | -8.5%
COC(=O)c1ccc(NS(=O)(=O)c2ccc(SC)cc2)cc1 | -15.1%
COCCOCC(O)CN1CCN(c2ccc(C)cc2)CC1 (stereo not drawn) | 5.3%
O=C(Cc1cccs1)N1CCCC(c2nc3c(nnn3Cc3ccccc3Cl)c(=O)[nH]2)C1 (stereo not drawn) | -5.1%
NC(N)=N/N=C(\c1ccc(Cl)cc1)C1CC1 | 6.1%[11.4 µM]
Cc1cc(Nc2cccc(F)c2)n2ncnc2n1 | 2.0%
O=C(O)c1cc2ccccc2c(Cc2cc3ccccc3c(C(=O)O)c2O)c1O (tested in a mixture with another compound) | 12.6µM*
CC1CCN(CCCNC(=O)c2ccc(CS(=O)(=O)Cc3ccccc3F)o2)CC1 | 1.2%
O=C(c1cccc(F)c1)N1CCC[C@@]2(CCN(Cc3ccccc3)C2)C1 | -4.7%
Cc1cc(C(F)(F)F)nn1Cc1ccc(C(=O)NCc2ccco2)o1 | -11.8%
COc1ccccc1C1(CC(=O)O)CCOC(C(C)C)C1 (stereo not drawn) | 0.3%
N[C@H](Cn1ccc(=O)n(Cc2ccccc2C(=O)O)c1=O)C(=O)O | -5.5%
Nc1ncnc2c1ncn2[C@@H]1O[C@H](COP(=O)(O)OP(=O)(O)O)[C@@H](O)[C@H]1O | -3.7%
O=C1CC(C(=O)N(c2cccc(F)c2)C(C(=O)NC2CCCC2)c2ccccn2)CS1 (stereo not drawn) | 3.8%
O=C(O)C1CCN(S(=O)(=O)c2ccc(Oc3ccccc3)cc2)CC1 | 2.0%
CCS(=O)(=O)N1CCCC(C(=O)NCc2cccnc2)C1 (stereo not drawn) | 0.5%
CCOc1cc(C(=O)N(C)Cc2cc3cc(OC)ccc3[nH]c2=O)cc(OCC)c1OCC | 31.6µM*
CCc1cc2c(=O)c(-c3nc4ccccc4n3C)coc2c(CN2CCN(C)CC2)c1O | 31.6µM*
COc1cccc(OC)c1Oc1ccc(C(F)(F)F)cn1 | 7.2%
Cc1ccc(S(=O)(=O)N2CCN(C(=O)CSc3nc4ccccc4o3)C2)cc1 | -10.1%

3 successive records from above, quoted:
SMILES | HSD17B inhib
Cc1cccc(Cc2nnc(NC(=O)c3cccc(S(=O)(=O)N4CCOCC4)c3)s2)c1 | -16.1%
CCOC(=O)OCC1OC(C#CC(C)(C)C)C=CC1OC(=O)OCC (stereo not drawn) | 4.5%[11.4 µM]
Cc1cccc(N2CCN(S(C)(=O)=O)CC2)c1C | 1.1%

(cont.)
SMILES | HSD17B inhib
CCOCCOC(=O)C1=C(C)N(C)C(=O)NC1c1ccccc1F (stereo not drawn) | 5.5%
C=CCn1c(COc2ccc(CC)cc2)nnc1SC/C(O)=C(\C#N)c1nc2ccccc2[nH]1 | ?
CCc1c(C)nc(SCC(=O)Nc2ccc(Br)cc2)[nH]c1=O | -7.2%
Cc1ccc(C(C(=O)NC2CCCC2)N2CCCCC2)cc1 (stereo not drawn) | -0.4%
CCOc1ccc(CN2CCN(C(=O)c3ccccc3)CC2)cc1 | 5.8%
CCOC(=O)Cc1csc(NC(=O)c2cccc(OC)c2)n1 | 0.3%
COc1ccc(C(O)Cc2nc3ccccc3n2C)cc1OC (stereo not drawn) | 6.0%
COc1ccc2cc3cc(C(=O)N4CCN(Cc5ccc6c(c5)OCO6)CC4)oc3nc2c1 | 15.8µM*
COc1cc(C2CC(=O)N3CN(c4ccccc4C)CSC3=C2C#N)cc(OC)c1OC (stereo not drawn) | ?
CCOC1(C(F)(F)F)NC(=O)N(Cc2ccc(OC)cc2)C1=O (stereo not drawn) | 7.0%
CCCCOc1ccccc1C1CC(=O)NC2=C1C(=O)CCC2 (stereo not drawn) | 1.5%
COc1cccc(C2C(C(=O)c3sc(C)nc3C)=C(O)C(=O)N2CCN2CCOCC2)c1 (stereo not drawn) | -0.1%

Next section; it opens with the 3 that closed the last part.
SMILES | HSD17B inhib
CCOC1(C(F)(F)F)NC(=O)N(Cc2ccc(OC)cc2)C1=O (stereo not drawn) | 7.0%
CCCCOc1ccccc1C1CC(=O)NC2=C1C(=O)CCC2 (stereo not drawn) | 1.5%
COc1cccc(C2C(C(=O)c3sc(C)nc3C)=C(O)C(=O)N2CCN2CCOCC2)c1 (stereo not drawn) | -0.1%
C/C(=C\C(=O)Nc1nccs1)c1ccccc1 | -9.0%
CCOC(=O)c1oc2nc(C(C)C)c3c(c2c1N)CCC3 | 1.8%
Cc1nc2nc(-c3ccccc3)cc(=O)n2[nH]1 | 2.9%
Cc1cccc2cc(C#N)c(SCCN3CCCCC3)nc12 | ?
CCOC(=O)N1CCC(Nc2c(NCCCN3CCN(c4ccc(OC)cc4)CC3)c(=O)c2=O)CC1 | 4.8%
O=C1Nc2ccccc2C12OC1CCCCC1O2 (stereo not drawn) | 19.3%
CC(NC(=O)C1C2C=CC(C2)C1C(=O)O)c1ccccc1 (stereo not drawn) | 0.5%
Cc1ccc(NC2c3ncccc3C(=O)N2c2ccccc2C)cc1C (stereo not drawn) | 20µM*
CC(=O)NC(Cc1ccccc1)C(=O)NC1CCN(C(=O)NC2CCCCC2)CC1 (stereo not drawn) | 5.0%
CC1(C(=O)NC2CCCCCCC2)CCC(=O)N1CCN1CCOCC1 (stereo not drawn) | 6.6%
COc1ccc(CC(=O)NC2CCN(CC(=O)Nc3ccc4c(c3)OCCO4)CC2)cc1OC | -3.7%
Cc1cc(C(=O)OCC(=O)Nc2ccc(F)cc2F)c(C)o1 | -2.6%
O=c1c(-c2cccc(F)c2)nc2cncnc2n1-c1ccccc1 | 31.6µM*
CC(=O)N1CCC2(CCCN(c3ccncc3)C2)CC1 | 5.0%
O=C(COc1ccccc1O)Nc1ccccc1Cl | -10.3%
COc1ccccc1C(=O)Nc1ccc(N2CCN(Cc3ccccc3)CC2)cc1 | -1.5%
O=C(c1cccs1)N1CCN(Cc2ccncc2)CC1 | 8.6%
CC1c2[nH]c3ccccc3c2CCN1S(C)(=O)=O (stereo not drawn) | -5.6%
CCOc1ccccc1N(CC(=O)Nc1ccc2c(c1)OCO2)S(C)(=O)=O | 6.5%
Cc1ccc(Cn2ccc(NC(=O)c3noc4c3CCCCC4)n2)cc1 | -1.1%
CCC(=O)Nc1nc(C)cc(SCC(=O)OC)n1 | 9.2%
CCCCC(=O)Nc1ccc(C(=O)NCc2ccncc2)cc1 | 2.7%
CC(C)Oc1ccc(C(=O)NCc2cccnc2)cc1 | 7.1%
COc1cc(C=O)c([N+](=O)[O-])cc1OC | -23.2%
CCOC(=O)CC(=O)CSC1=C(C#N)C(c2ccccc2OC)CC(=O)N1 (stereo not drawn) | 25.1µM*
Cc1noc(C)c1C(=O)N1CCC2(CCN(Cc3nccs3)CC2)CC1 | 17.6%
CCOC(=O)N1CCN(C(=O)c2nn(-c3ccc(C)cc3)c(=O)c3c2c2ccccc2n3C)CC1 | ?
CCCS(=O)(=O)N1CCCC(C(=O)NCCN2CCCCC2C)C1 (stereo not drawn) | 1.8%
CC(Sc1nc(-c2ccccc2)cc(C(F)(F)F)n1)C(=O)N1CCC(C(N)=O)CC1 (stereo not drawn) | -1.7%
C=CCOc1ccc(/C(O)=C2\C(=O)C(=O)N(CCCOC)C2c2ccc(O)c(OC)c2)cc1 (stereo not drawn) | -3.4%
N#CCCn1nnc(-c2ccccc2F)n1 | 3.5%
CC(C)CCC[C@@H](C)[C@@H]1CC[C@@H]2[C@H]3CC[C@H]4C[C@@H](N)CC[C@@]4(C)[C@@H]3CC[C@]21C | 0.9%[11.4 µM]
Cc1c(C(=O)NCC2CCCO2)oc2ccc(S(=O)(=O)N3CC(C)CC(C)C3)cc12 (stereo not drawn) | 8.6%
CCCCNC(=O)c1cc2c(-c3ccc(Cl)cc3)nn(C)c2s1 | 31.6µM*
O=[N+]([O-])c1c(Cl)cc(Cl)cc1Cl | -0.4%
O=C(NO)c1ccc(OC(F)F)cc1 | 9.1%

Structures listed so far containing a thiophene ring, fused or not (4):
SMILES | HSD17B inhib
CC(C)(O)C#Cc1ccc(C(=O)N2CCCC2C(=O)O)s1 (stereo not drawn) | 5.0%
O=C(Cc1cccs1)N1CCCC(c2nc3c(nnn3Cc3ccccc3Cl)c(=O)[nH]2)C1 (stereo not drawn) | -5.1%
O=C(c1cccs1)N1CCN(Cc2ccncc2)CC1 | 8.6%
CCCCNC(=O)c1cc2c(-c3ccc(Cl)cc3)nn(C)c2s1 | 31.6µM*

(cont.)
SMILES | HSD17B inhib
COc1cc(OC)c(C2N(c3cc(C)on3)C(=O)C3CCCN32)cc1OC (stereo not drawn) | 0.1%
Cc1ccc(OCC(=O)OC2CCS(=O)(=O)C2)cc1 (stereo not drawn) | -7.1%
Cn1nnnc1SCC1=C(C(=O)O)N2C(=O)[C@@H](NC(=O)[C@@H](O)c3ccccc3)[C@@H]2SC1 | -29.1%[25.6 µM]
CCOc1ccc(C(=O)NCC(C)CN(C)C)cc1OCC (stereo not drawn) | -8.4%
O=S(=O)(c1ccc(Sc2nnc3ccccn23)nc1)N1CCOCC1 | -1.7%
Cc1cnc(C(=O)Nc2cccc3cccnc23)cn1 | -16.1%
O=C(NC1=NCCS1)NC12CC3CC(CC(C3)C1)C2 | -2.7%
CCc1ccccc1NC(=O)CN1C(=O)C2CCCN2c2ncc(Cl)cc21 (stereo not drawn) | 3.0%

Screens as filed in PubChem.

Some of the compounds tested; the hit share may differ from the screen's.
